Screening results from PubChem.
Mtb growth – M. tuberculosis H37Rv growth inhibitors, H37Rv strain (AID 1626); M. tuberculosis H37Rv growth inhibition; higher % means a stronger effect; hit rate 0.95% among 220,000; one-dose inhibition, % at 10 µM; IC50 in µM for titrated hits;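 active = confirmed in a dose series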;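 note: bacteria incubated seven days before Alamar blue readout; 0% = bacteria only wells and 100% = bacteria with antibiotic wells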
YopH PTP inh – YopH tyrosine phosphatase inhibitors, primary screen, biochemical, fluorescence Ex485/Em525 | inhibition, %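 (about 10 µM by stock and volumes)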 | hit rate 0.16% among 140,000 | AID 898, 2007;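 active = inhibition of 50% or more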;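 note: controls were vehicle for no effect and minimum signal wells for full effect; inactives centre near -20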
Mtb bLac sens – beta-lactam sensitization of Mtb H37Rv, H37Rv | M. tuberculosis H37Rv growth with meropenem, percent inhibition; hits of this screen are not shown here | inhibition, % at 25 µM | hit rate 0.27% among 330,000;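 active = about 74% or more and at least 40 points above the plate without the antibiotic, then above 30% in a dose series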;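 note: growth measured after seven days incubation then overnight dye step; 0% = bacteria only wells and 100% = bacteria with antibiotic; twin plates without the antibiotic show which effects depend on it; some results filed as inactive read as strong as hits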
Arbovirus inh – antivirals against arbovirus infection, primary screen, cell-based, full library, 10K replicate subset | inhibition, % at 10 µM | arbovirus infection cell-based antiviral screen | hit rate 0.37% among 200,000;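 active = inhibition from about 30%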;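 note: bluetongue infection of BSR cells; cell survival read as ATP light after 72 h; 0% = infected wells without compound and 100% = uninfected wells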
RecA splice inh – Mtb RecA intein splicing inhibitors, primary screen, biochemical, fluorescence, HTS. cell-free RecA intein splicing. inhibition, %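 (about 9 µM by stock and volumes)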. hit rate 0.75% among 290,000; in the data active = inhibition above about 30%;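 note: 0% = vehicle wells and 100% = reference inhibitor control wells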
Target sequence (P9WHJ3 whole entry, looked up, canonical isoform): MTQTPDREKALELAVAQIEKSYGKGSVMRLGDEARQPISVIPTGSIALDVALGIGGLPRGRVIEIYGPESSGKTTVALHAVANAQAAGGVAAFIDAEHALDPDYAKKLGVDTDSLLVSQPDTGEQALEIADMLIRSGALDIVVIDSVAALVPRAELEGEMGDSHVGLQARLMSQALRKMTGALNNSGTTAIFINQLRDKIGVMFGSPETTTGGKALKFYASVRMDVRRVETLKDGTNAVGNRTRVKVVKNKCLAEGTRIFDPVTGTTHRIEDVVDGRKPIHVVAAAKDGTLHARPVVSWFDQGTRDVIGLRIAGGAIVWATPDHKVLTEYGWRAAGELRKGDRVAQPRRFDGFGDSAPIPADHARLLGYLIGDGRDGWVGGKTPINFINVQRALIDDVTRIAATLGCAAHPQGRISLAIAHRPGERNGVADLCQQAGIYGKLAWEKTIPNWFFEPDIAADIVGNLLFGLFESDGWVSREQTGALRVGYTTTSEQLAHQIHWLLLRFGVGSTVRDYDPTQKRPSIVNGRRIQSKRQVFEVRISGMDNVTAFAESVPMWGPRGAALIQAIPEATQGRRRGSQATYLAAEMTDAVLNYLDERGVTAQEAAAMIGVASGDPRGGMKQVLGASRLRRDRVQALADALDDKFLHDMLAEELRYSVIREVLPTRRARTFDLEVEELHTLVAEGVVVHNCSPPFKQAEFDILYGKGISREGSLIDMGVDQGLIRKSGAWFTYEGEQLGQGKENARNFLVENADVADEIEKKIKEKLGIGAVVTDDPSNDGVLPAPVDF
An asterisk follows results filed as active; . = not tested or not shown. These rows are one share of the data; the hit share may differ from the screen's.

Results follow in this order: Mtb growth | YopH PTP inh | Mtb bLac sens | Arbovirus inh | RecA splice inh
- Cc1cccc(NC(=O)C2CCCN2S(=O)(=O)c2ccc3c(c2)n(C)c(=O)c(=O)n3C)c1 (stereo not given)
    . | -33 | 7 | 4 | 2.2
- CCCN1CCC(N2CCCC(C(=O)O)C2)CC1 (stereo not given)
    3% | . | 1 | -6 | -3.2
- CN(C)CCNC(=O)c1cc(Br)ccc1Cl
    2% | 18 | -2 | 8 | -0.4
- Cc1nn2c(-c3ccncc3)ccnc2c1Br
    -1% | . | 0 | 0 | -1.4
- O=C(COc1cccc2c1CCNC2=O)NC1CCCCC1
    . | . | -11 | . | 1.1
- CC(=O)c1ccc(N2CCN(CCC#N)CC2)c(F)c1
    -6% | -34 | -2 | -4 | -1.0
- O=C(Cc1cccs1)NNC(=S)NC(=O)c1ccccc1
    39% | -35 | 36 | -19 | 0.1
- Cc1ccc(C(=O)OCC(=O)NN2C(=O)NC3(CCC(C)CC3)C2=O)cc1 (stereo not given)
    . | . | 1 | . | -2.7
- CN(C)C(=O)NC1C=CS(=O)(=O)C1 (stereo not given)
    -4% | -10 | -3 | 7 | .
- O=C(CN(CCCN1CCOCC1)C(=O)Cn1nnc(-c2ccc(F)cc2)n1)NC1CCCCC1
    -7% | -26 | -4 | -2 | 1.9
- CCOc1ccc(N(CC(=O)N/N=C/c2ccccn2)S(=O)(=O)c2ccc(Cl)cc2)cc1
    . | . | 3 | . | 3.0
- CCOC(=O)c1cnc(SC)nc1Oc1cccc(NC(=O)c2ccc(C)cc2)c1
    8% | -27 | -4 | 2 | -7.0
- COc1cc(/C=N/n2c(-c3ccccc3)n[nH]c2=S)cc(OC)c1OC
    -5% | . | -6 | . | .
- O=C(CCCc1nc(-c2ccccc2)no1)NC1CCCCC1
    . | . | 7 | . | 0.6
- COC(C(=O)Nc1ccccc1C(=O)N1CCOCC1)c1ccccc1 (stereo not given)
    . | . | 1 | . | -5.9
- CCCC(O)(c1ccc(CC)cc1)C(CN1CCOCC1)c1ccccc1 (stereo not given)
    . | . | 13 | . | 7.3
- CSc1nc2c(c(=O)[nH]1)C(c1ccc(Cl)cc1)CC(=O)N2 (stereo not given)
    4% | . | 0 | 10 | -2.1
- NC(=S)N=Nc1c(O)[nH]c2ccc(F)cc12
    3% | -21 | 4 | 2 | -2.0
- CCOC(=O)c1c(NC(=O)CNC2CCCCC2)sc(C)c1C
    -5% | . | 59 | 0 | 4.0
- COc1ccc(NC(=O)C2(c3cccs3)CCOCC2)cc1
    -2% | . | -9 | 1 | -0.9
- O=C(N/N=C/c1ccc2c(c1)OCO2)C(=O)Nc1cccc(Cl)c1
    . | . | -3 | . | 0.2
- O=C1CN(C(=O)CSc2nnnn2-c2ccc(Cl)cc2)c2ccccc2N1
    1% | -2 | -4 | -5 | -2.2
- CCN(c1cccc(C)c1)S(=O)(=O)c1cnc[nH]1
    -2% | -28 | -3 | 5 | -3.1
- CCCn1nc(C(=O)NNC(=O)CCCOc2ccc(C)cc2)c2ccccc2c1=O
    . | . | -7 | . | 0.1
- C=CCn1c(SCC(=O)Nc2ccc3c(c2)OCCO3)nnc1-c1ccco1
    6% | -22 | 2 | -4 | -1.7
- O=C(CO/N=C/c1ccc(Cl)cc1Cl)NNC(=O)c1ccc(Cl)cc1Cl
    -2% | . | 0 | . | -3.4
- O=C(O)CCN=CC1=C(O)CC(c2ccccc2)CC1=O (stereo not given)
    . | . | -1 | . | -1.6
- COc1ccc(OC)c(NC(=O)COC(=O)CSc2ccc(Cl)cc2)c1
    4% | -12 | 5 | 1 | 6.7
- CCOCC(=O)Nc1ccc([N+](=O)[O-])cc1OC
    5% | . | 2 | 3 | 0.3
- Cc1ccc(OCC(=O)O/N=C(\N)c2ccncc2)c(C)c1
    . | . | 6 | . | 6.0
- O=C(Cn1nc(-c2ccccc2)ccc1=O)NCC1COCCO1 (stereo not given)
    -6% | 2 | 0 | 3 | -1.4
- NC(=O)c1ccc(NC(=O)COC(=O)CCc2ccc(S(=O)(=O)N3CCCCC3)cc2)cc1
    -6% | . | -1 | 3 | -3.4
- OCCN(CCO)c1nc2ccccc2[nH]1
    15% | . | -7 | . | -1.9
- COc1ccc(C(=O)N(C)CCCC2CCCC2)cc1OC1CCN(C(C)=O)CC1
    . | . | -5 | . | -1.4
- C[C@H](NS(=O)(=O)OCC(Cl)(Cl)Cl)C1CC1c1ccccc1 (stereo not given in full)
    . | . | 100 | . | 8.2
- CC(O)c1ccc(Oc2cnccn2)cc1 (stereo not given)
    . | . | -1 | . | -4.2
- O=C(CN1CCC(n2nnc3cc(C(F)(F)F)ccc32)CC1)N1CCc2ccccc21
    6% | -40 | 2 | -1 | 3.8
- CN(Cc1ccccc1)C(=S)Nc1ccc(OC(F)F)cc1
    4% | -21 | -7 | 4 | 1.1
- COCCCNC(NC(=O)c1ccc(Cl)cc1)C(Cl)(Cl)Cl (stereo not given)
    1% | -25 | 2 | 6 | -0.8
- O=S(=O)(c1ccc(N2CCCC2)cc1)C(F)(F)F
    6% | -14 | -12 | 8 | 0.9
- CC1=C(C#N)CCC(=O)N1Cc1c(C)cc(C)cc1C
    9% | -40 | 5 | 7 | 1.5
- O=C(O)CCN1C(=O)c2ccccc2Sc2ncccc21
    . | . | -9 | . | -1.4
- COC(=O)C1=C(C(=O)c2ccc(C)cc2)C(c2ccc(OC)c(OC)c2)n2nnnc2N1 (stereo not given)
    -1% | -16 | -8 | 3 | -0.2
- COc1cc(-c2nc3cnccn3c2Nc2ccc(C(C)C)cc2)ccc1O
    -1% | -10 | 1 | 3 | 5.2
- COc1ccc(C2c3[nH]c4ccccc4c3CCN2CCCn2cccn2)cc1C (stereo not given)
    2% | . | 3 | -3 | -12
- O=C(CN1CCN(C(=O)c2ccco2)CC1)Nc1ccc(Cl)c(S(=O)(=O)N2CCOCC2)c1
    7% | . | -7 | -1 | -2.1
- COC(=O)Nc1ccc(S(=O)(=O)Nc2cnc3ccccc3n2)cc1
    0% | . | 0 | 1 | .
- Cc1ccc(C(=O)NCc2n[nH]c(=S)n2-c2ccccc2)cc1[N+](=O)[O-]
    -4% | . | 1 | 5 | -3.1
- CCN(Cc1ccccc1)C(=O)c1ccc(SC)cc1OC
    -1% | . | -3 | 2 | .
- Cn1c(CN2CCOCC2)nnc1SCC(=O)Nc1ccc2c(c1)OCCO2
    -9% | -3 | -14 | 5 | 0.3
- COc1ccc2oc(C(=O)Nc3ccc(C)cn3)c(C)c2c1
    . | . | 2 | . | -0.3
- CCn1c(CC(=O)Nc2ccccc2Cl)nnc1SCC(=O)NC1CCCC1
    . | . | -5 | . | 3.6
- COc1ccc(C(=O)/C=C/c2ccc(F)cc2)c(OC(=O)c2ccc([N+](=O)[O-])cc2)c1
    -3% | -3 | 93 | 8 | .
- CC(C(=O)Nc1ccccc1)N(C)CCOc1ccc(Br)cc1 (stereo not given)
    11% | . | 3 | 15 | 3.4
- O=C(CSC1=NS(=O)(=O)c2cc(Cl)ccc2N1)NCCc1ccccc1
    . | . | -10 | . | -1.1
- O=C(CSc1nc2sccc2c(=O)[nH]1)N1CCN(c2ccccc2)CC1
    . | . | 2 | . | -1.9
- CC(C(=O)OCC(=O)c1ccc(Br)cc1)N1C(=O)C2C3C=CC(C3)C2C1=O (stereo not given)
    . | . | 0 | . | -1.0
- CN(C)C(=O)CN1CCN(C(=O)CCl)CC1
    8% | . | 1 | 10 | -0.7
- COc1ccc(-c2[nH]c3ccccc3c2SCCNC(=O)c2ccccc2)cc1
    . | -13 | 0 | 2 | -4.1
- CC(C)CN1CCN(Cc2cc3ccccc3[nH]2)CC1CCO (stereo not given)
    . | . | 3 | . | 0.6

Other records.
Results follow in this order: Mtb growth | YopH PTP inh | Mtb bLac sens | Arbovirus inh | RecA splice inh
- Cc1ccc(C)c(CN2C(=O)c3ccccc3S(=O)(=O)c3ccc(C(=O)N4CCN(C)CC4)cc32)c1
    . | . | -5 | . | -3.2
- Fc1cccc(Cl)c1CNn1cn[nH]c1=S
    6% | . | 2 | 3 | -1.0
- CC(=O)C1=C(C)NC(C)=C(C(C)=O)C1c1ccccc1
    -1% | . | -7 | 0 | -6.5
- COc1cc(-c2nc(C(=O)NC3CCCCC3)cc3c2[nH]c2ccccc23)cc(OC)c1OC
    . | . | 3 | . | 15
- Cc1ccc(C2=NCCn3nc4cc([N+](=O)[O-])ccc4c32)cc1
    . | . | 1 | . | -3.8
- Cc1ccccc1Cn1c(=O)sc2ccccc2c1=O
    8% | . | -7 | -4 | 0.1
- O=C(Cc1coc(-c2ccc(F)cc2)n1)NCc1ccccc1
    4% | -18 | -6 | -4 | -3.0
- CCc1nn(CC(=O)NCCN2CCN(C)CC2)c(=O)c2cc3occc3n12
    2% | -28 | -2 | 6 | -1.0
- COc1ccc2c(=O)c(-c3ccc4c(c3)OCO4)coc2c1
    -3% | -29 | -8 | -8 | 3.1
- O=C(NCCCN1CCCC1=O)Nc1cc(Cl)ccc1Cl
    . | . | -8 | . | 2.6
- CC(=O)c1ccc(N(CC(=O)NCCc2ccccc2)C(=O)c2csnn2)cc1
    . | . | -2 | . | 0.0
- Cc1cc(OCC(O)CN2C(C)CCCC2C)ccc1C(C)C (stereo not given)
    0% | . | -1 | 10 | -1.9
- O=C(NCc1ccccc1Cl)c1cccc(NC2=NC3CS(=O)(=O)CC3S2)c1 (stereo not given)
    . | . | 3 | . | 2.4
- O=S(=O)(NCc1cccs1)NCc1ccccc1F
    . | . | -2 | 0 | 0.1
- Clc1ccc(SCc2nc3ccccc3[nH]2)cc1
    2% | -34 | -4 | -9 | 3.6
- CCC1CCCCN1C(=O)CCc1nnc(C2CCCCC2)o1 (stereo not given)
    -5% | . | -2 | 0 | -0.5
- CN(C(=O)CCOc1ccccc1)c1c(N)n(Cc2ccccc2)c(=O)[nH]c1=O
    . | . | -7 | . | 1.7
- CCN(CC)c1ccc(C(=O)NC(=S)N2CCN(Cc3ccc4c(c3)OCO4)CC2)cc1
    3% | 2 | 0 | 3 | 7.2
- CC(C)c1cc(-c2cc(C(=O)Nc3ccccc3)on2)nc(NC2CCCC2)n1
    75% | . | 86 | . | 3.6
- Brc1ccc(/C=N/Nc2ccccn2)cc1
    7% | . | 9 | -5 | .
- COc1ccccc1CNC(=O)CN1C(=O)c2cccc(N)c2C1=O
    . | . | -2 | . | -239
- CCC(=O)Oc1ccc2oc(=O)cc(C)c2c1
    44% | 40 | 7 | -5 | 1.4
- O=c1c2cc3c(=O)n(-c4ccccc4O)c(=O)c3cc2c(=O)n1-c1ccccc1O
    0% | . | 0 | -15 | -2.2
- COC(=O)c1ccc(NC(=O)CN2C(=O)CNC2=O)cc1
    7% | 5 | 96 | 2 | 2.2
- O=C(O)CN1C(=O)/C(=C/c2ccccc2Br)Oc2ccccc21
    . | . | -1 | . | -6.5
- COc1ccc(CSc2nnc(Cc3sc(-c4ccccc4)nc3-c3ccccc3)o2)cc1
    2% | -14 | 0 | 4 | 1.0
- Cc1ccc(C(C(=O)NCc2ccco2)N(C(=O)CNC(=O)c2cccs2)c2ccc(C)cc2)cc1 (stereo not given)
    -5% | -27 | 2 | -2 | 0.4
- C/C(=N\Nc1cc(C(F)(F)F)ccc1Cl)c1ccccc1O
    5% | -11 | 7 | 6 | 2.0
- Cc1ccc(-n2cc(CN3CCN(c4ccccn4)CC3)c(-c3ccc(F)cc3)n2)cc1
    8% | . | 79 | 5 | 9.4
- CC1CC(C)CN(S(=O)(=O)c2ccc3c(c2)n(C)c(=O)c(=O)n3C)C1 (stereo not given)
    3% | . | -4 | . | -2.3

Compound profiles, as listed above. Order of screens: Mtb growth | YopH PTP inh | Mtb bLac sens | Arbovirus inh | RecA splice inh
Listed for Cc1ccc(C2=NCCn3nc4cc([N+](=O)[O-])ccc4c32)cc1 : . | . | 1 | . | -3.8
Listed for O=C(NCc1ccccc1Cl)c1cccc(NC2=NC3CS(=O)(=O)CC3S2)c1 (stereo not given) : . | . | 3 | . | 2.4
Listed for COc1cc(-c2nc(C(=O)NC3CCCCC3)cc3c2[nH]c2ccccc23)cc(OC)c1OC : . | . | 3 | . | 15
Listed for CN(C(=O)CCOc1ccccc1)c1c(N)n(Cc2ccccc2)c(=O)[nH]c1=O : . | . | -7 | . | 1.7
Listed for Clc1ccc(SCc2nc3ccccc3[nH]2)cc1 : 2% | -34 | -4 | -9 | 3.6

Going on with the list.
Results follow in this order: Mtb growth | YopH PTP inh | Mtb bLac sens | Arbovirus inh | RecA splice inh
- COC(=O)CC(=O)c1ccc2c(c1)OCO2
    7% | . | -12 | . | -1.3
- COc1ccc(C(=O)NC(=S)Nc2nnn(C)n2)cc1
    12% | -6 | -2 | 4 | 0.5
- Cc1ccc(N2C(=O)NC(=O)/C(=C\C=C\c3ccco3)C2=O)cc1C
    -7% | -26 | 25 | -1 | 1.7
- CCCCS(=O)(=O)N1CCCC(C(=O)Nc2ccc(Cl)cn2)C1 (stereo not given)
    . | . | -2 | . | 1.2
